PrP 5UTR inh – inhibition of PrP 5' UTR reporter expression; AID 488862; cell-based PrP 5' UTR mRNA reporter, plate reader; inhibition, % (test concentration not listed); actives 0.35% (n = 340,000);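 active means every replicate at 50% or more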;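 further: 0 = median of the neutral control wells; tested in H4 reporter cells; numbers are from one replicate; inactives centre near -14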
Autofluor counter – flagged as autofluorescent in microsphere protease counterscreen; compound autofluorescence counterscreen, microsphere flow cytometry; active compounds read high; fluorescence intensity (test concentration not listed); actives 3.1% (n = 360,000); AID 624483;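 active means at least 3 SD above the mean of all compounds, about 16000 in these data; inconclusive means too few beads counted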;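 further: 100 nL of 1 mM stock went into each well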
Mtb hypoxia inh – reduces hypoxia-regulated biosensor signal in M. tuberculosis; M. tuberculosis hypoxia-regulated fluorescent reporter, fluorescence; fluorescence inhibition, % (concentration not given with the values); actives 0.1% (n = 300,000); AID 1159583;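 active means 35 to 45% if threefold the growth effect, above 45% if 1.5-fold the growth effect; inactive means the rest, general growth blockers included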;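 further: wells of about 50 µL received 100 nL stock; 0% = vehicle wells and 100% = reference inhibitor wells; whole bacteria with a GFP reporter of the hypoxia response; strong numbers were not always called active; many hits fall short of the cut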
Sa ugtP lethal – growth inhibition of S. aureus ugtP deletion strain | S. aureus RN4220 ugtP deletion, OD600 growth, 16 h; some inactives read as strong as hits | actives 0.54% (n = 330,000) | growth inhibition, % (concentration not given with the values);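 active means z-score under -3 and OD600 up to 0.15 on both plates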;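 further: plate controls were untreated wells for no effect and antibiotic for full effect; wells of about 80 µL received 100 nL stock; the first replicate is given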
Sa RN4220 lethal – kills Staphylococcus aureus RN4220; S. aureus RN4220 growth, OD600, 16 h; inhibition, % (no concentration beside the values); actives 0.33% (n = 330,000);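 active means z-score of -3 or lower and OD600 up to 0.18 on both plates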;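 further: plate controls were untreated cells for no effect and reference antibiotic for full effect; stock transfer was 100 nL into about 80 µL; one replicate is shown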
BJeLR lethal – BJeLR cell viability loss; BJeLR (HRASV12) viability, CellTiter-Glo ATP luminescence, 48 h; reference of the scale not given here; inhibition, % (concentration not given with the values); actives 0.17% (n = 300,000); AID 1554;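 active means replicate mean above 50%; inconclusive means above 50% but judged a plate artefact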;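 further: 50 nL library stock added to about 25 µL; numbers are from one replicate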
Mtb hypoxia inh growth – second read-out of Mtb hypoxia inh, no call of its own (marks repeat the call); growth inhibition, %; measured here: M. tuberculosis growth (absorbance);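 0% = vehicle and 100% = reference antibiotic; read after six days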
An asterisk follows results filed as active; u = inconclusive; x = no result given; & = joins results of further samples.

smiles	Sa RN4220 lethal	Sa ugtP lethal	Autofluor counter	Mtb hypoxia inh	BJeLR lethal	PrP 5UTR inh	Mtb hypoxia inh growth
CCOC(=O)c1c(C)nc2sc3c(c2c1-c1ccc(OC)cc1)NC(c1ccccc1)NC3=O (stereo not drawn)	-11	3	3294	5	-4	-5	0
CCC(=Cc1ccc(CC)cn1)CC	3.8	-3	4175	12	2	-28	0
O=C(c1ccc([N+](=O)[O-])cc1)N(Cc1cccs1)C1CCS(=O)(=O)C1 (stereo not drawn)	1.1	-1	3736	4	7	-15	0
COC(=O)c1ccccc1NC(=O)c1ccc2c(c1)OCCCO2	11	4	6355	-12	3	-18	-2
S=c1[nH]nc(COc2ccccc2)n1N=Cc1ccc(Br)cc1	3.5	-8	x	7	x	x	-1
CCCCC(=O)Nc1cccc(NC(=O)C(C)C)c1	0.2	2	4532	x	5	-5	x
Cc1ccc(S(=O)(=O)NCCc2ccncc2)cc1C	5.3	4	4797	18	3	-14	6
CSCCC(NC(=O)C1CCCCC1)c1nc2ccccc2[nH]1 (stereo not drawn)	5.3	7	u	9	-4	x	4
COC(=O)C1=C(c2ccc3ccccc3c2)CC2CCC1N2C(=O)NCc1ccc(C(F)(F)F)cc1 (stereo not drawn)	-14	17	x	8	x	x	7
Cc1cc(C)c(NC(=O)CN2C(=O)NC3(CCCCC3)C2=O)c(Cl)c1	3.1	10	7868	9	1	0	7
CCOc1ccc(-c2c(C(=O)N/N=C/c3ccc(OC)cc3)nnn2-c2nonc2N)cc1	x	x	2045	x	-3	-12	x
CCOC(=O)c1c(NCc2ccc3c(c2)OCO3)c2ccccc2[nH]c1=O	1.2	4	4393	x	x	-89	x
CC(=O)N1CCOc2ccc(S(=O)(=O)NCC3CCC(C(=O)Nc4ccc(C)cn4)CC3)cc21 (stereo not drawn)	3.6	6	4758	12	8	-9	6
C=CCc1cccc2cc(C(=O)NC3CCCCC3)c(=O)oc12	2.6	-4	3572	8	2	-23	15
O=C(c1cnn2c(C(F)F)cc(-c3ccccc3)nc12)N1CCN2CCCC2C1 (stereo not drawn)	-3.9	-4	3401	10	8	-33	12

smiles	Sa RN4220 lethal	Sa ugtP lethal	Autofluor counter	Mtb hypoxia inh	BJeLR lethal	PrP 5UTR inh	Mtb hypoxia inh growth
Cn1c(=NC(=O)c2ccccc2[N+](=O)[O-])sc2cccc(F)c21	4.6	0	5497	-2	4	-116	3
Cc1cc(C)c(C#N)c(N2CCCC(C(N)=O)C2)n1 (stereo not drawn)	2.2	3	2637	x	-4	-7	x
COc1ccc(N(C(=O)CNC(=O)c2ccco2)C(C(=O)NC2CCCCC2)c2ccncc2)cc1 (stereo not drawn)	4.2	0	5452	-2	-12	-22	-7
O=C(CNS(=O)(=O)c1ccc(Br)s1)N1CCN(c2ncccn2)CC1	2.5	10	2392	x	-3	-21	x
O=C(Oc1cccc(C(=S)N2CCOCC2)c1)c1cc([N+](=O)[O-])cc([N+](=O)[O-])c1	-0.2	0	2000	-9	2	1	7
COC(=O)COc1ccc(C(c2c(C)[nH][nH]c2=O)c2c(C)[nH][nH]c2=O)cc1	4.1	1	3655	7	-6	-19	19
CCCCN(C)CCNC(=O)c1cc(-c2cccnc2)nc2ccc(S(=O)(=O)N3CCC(C)CC3)cc12	0.9	4	6008	0	-3	6	1
CCN(CC)c1ccc(-c2nc3cnccn3c2NC2CCCC2)cc1	3.8	-6	4378	17	-3	-1	8
CC1=C(C(=O)Nc2ccccc2)C(c2ccc(C)cc2)N=C(Nc2nc3ccccc3o2)N1 (stereo not drawn)	30	-10	23563*	37*	-5	7	-20*
O=C(CCN1CCCC1Cc1ccccc1)c1ccc2c(c1)OCCO2 (stereo not drawn)	-9.7	-3	x	3	-1	5	11
Cc1ccccc1N(C(=O)c1snc(C(N)=O)c1N)C(C(=O)NC1CCCC1)c1ccco1 (stereo not drawn)	4.5	14	4572	-4	-7	-2	-7
COc1ccc(-c2nnsc2N2C(=O)c3ccccc3C2=O)cc1	3.6	9	3949	1	-21	x	-1
CCOC(=O)c1c(-c2ccc(C)o2)csc1NC(=O)CN1CCC(C(N)=O)CC1	3.9	-8	3216	-4	-9	15	3
COc1ccc(N2CCN(CCCNC(=O)CN3C(=O)COc4ccccc43)CC2)cc1	2.4	1	5789	-3	0	-4	8
O=S(=O)(NCC1(N2CCOCC2)CCCCC1)c1ccc(F)c(F)c1F	1.5	4	u	-3	4	-16	2

smiles	Sa RN4220 lethal	Sa ugtP lethal	Autofluor counter	Mtb hypoxia inh	BJeLR lethal	PrP 5UTR inh	Mtb hypoxia inh growth
COc1cc(C(=O)Oc2cc(C)cc(C)c2)cc(OC)c1OC	-7.2	-1	2376	17	3	-15	9
COc1ccc(NC(=O)CSc2nc(N)cc(N)n2)cc1S(=O)(=O)N1CCCCC1	-2.4	0	3668	0	x	-3	10
CCOC(=O)N1CCN(c2nc3ccc(C)cc3n3cnnc23)CC1	2.3	9	3087	6	15	15	-6
O=C(NCC(=O)N(c1ccccc1F)C(C(=O)NC1CCCC1)c1ccncc1)c1ccco1 (stereo not drawn)	7.0	7	5171	17	1	-11	5
CC(NCCc1ccc(O)cc1)C(O)c1ccc(O)cc1 (stereo not drawn)	3.3&-0.5&7.4	-4&-5&3	5837	11&-1&4	-15	0	4&-2&3
COc1cccc(NC(=O)COc2ccc(Br)c(C)c2)c1	1.5	-3	3617	-11	-1	-28	-2
Oc1cccc(/C=N/Nc2cc(N3CCOCC3)nc(N3CCOCC3)n2)c1	x	x	2458	x	-14	-9	x
CSc1nnc(-c2ccccc2)c(=O)[nH]1	4.8	-1	3881	x	0	-30	x
Cc1cc(C)cc(NC(=O)CN2CCN(C(=O)C3CCCO3)CC2)c1 (stereo not drawn)	2.3	3	5297	5	8	-6	11
Cc1ccc2nc(-c3cccnc3)c(NC3CCCC3)n2c1	1.9	6	9819	10	6	5	6
Cc1onc(-c2ccccc2)c1C(=O)Nc1ccc(Cl)cn1	-0.3	16	3179	-1	8	-5	-2
C=CCn1c(SCC(=O)NCc2ccc3c(c2)OCO3)nnc1C1CCCCC1	8.4	-11	9288	-82	5	-13	-3
CC1=NNC(=O)C1CCC(=O)N/N=C/C=C/c1ccccc1 (stereo not drawn)	x	x	2335	x	-1	-15	x
COc1cc(/C=N/NC(=S)NC(C)C)ccc1OCC(=O)Nc1c(C)cc(C)cc1C	x	x	2517	x	3	9	x
Cc1ccccc1NC(=O)c1cccc(NC(=O)c2ccco2)c1	8.7	7	4198	17	5	-17	4

A draw from above in order of length of the SMILES, rising:
smiles	Sa RN4220 lethal	Sa ugtP lethal	Autofluor counter	Mtb hypoxia inh	BJeLR lethal	PrP 5UTR inh	Mtb hypoxia inh growth
CSc1nnc(-c2ccccc2)c(=O)[nH]1	4.8	-1	3881	x	0	-30	x
CC(NCCc1ccc(O)cc1)C(O)c1ccc(O)cc1 (stereo not drawn)	3.3&-0.5&7.4	-4&-5&3	5837	11&-1&4	-15	0	4&-2&3
COc1ccc(NC(=O)CSc2nc(N)cc(N)n2)cc1S(=O)(=O)N1CCCCC1	-2.4	0	3668	0	x	-3	10

The results go on.
smiles	Sa RN4220 lethal	Sa ugtP lethal	Autofluor counter	Mtb hypoxia inh	BJeLR lethal	PrP 5UTR inh	Mtb hypoxia inh growth
Cn1c(/C=C/c2ccc([N+](=O)[O-])o2)nc2ccccc2c1=O	99*	97*	2825	x	82*	-32	x
CCn1c(SCC(=O)Nc2ccc3c(c2)OCCO3)nnc1-c1ccccn1	-0.3	3	13400	0	5	x	6
O=C(CNS(=O)(=O)c1ccccc1)OCC(=O)c1ccccc1Cl	4.3	10	5415	10	-3	-16	5
Cc1c(NC(=O)c2csc3c2CCCC3)c(=O)n(-c2ccccc2)n1C	0.3	10	6358	20	-1	-17	2
CCc1cccc(Nc2c3c(nc4ncnn24)CCC3)c1	4.7	-5	4295	4	1	-17	-3
Cc1ccc2c(CC(=O)NNC(=O)c3ccncc3)coc2c1	3.1	5	6117	-1	0	-35	-7
CCc1cc(=O)oc2c3c(cc(OCC(=O)NCCC(=O)O)c12)OC(C)(C)CC3	2.7	1	2885	2	3	-10	6
COc1ccccc1CNC(=O)C1CCC(CNc2c(N3CCCCC3)c(=O)c2=O)CC1 (stereo not drawn)	1.5	-1	3419	5	-6	-73	6
O=C(CCC1CCN(Cc2ccc(C#CCCO)cc2)CC1)NC1CC1	1.6	11	3074	-2	-2	-20	3
Cc1c(NS(=O)(=O)c2cc(C(=O)N(C)Cc3ccccc3)ccc2Cl)c(=O)n(-c2ccccc2)n1C	2.5	0	3105	4	x	-6	8
CCCc1ccc(OCC(O)CN2CCc3ccccc3C2)cc1 (stereo not drawn)	2.0	24	4019	5	-9	-22	8
Cc1oc(-c2ccccc2F)nc1CS(=O)(=O)CC(=O)N1CCCCCC1	1.4	-6	5942	4	-10	1	14
O=C1C=C(c2ccc(-c3ccccc3)cc2)CC(c2ccc(Cl)cc2)C1 (stereo not drawn)	-1.1	1	x	7	x	x	-3
Cc1cccn2c(=O)nc(SCC(=O)N3CCCCCC3)nc12	1.6	9	u	4	-5	-10	4
COc1cccc(C(=O)/C=C/Nc2ccc(S(=O)(=O)Nc3cnc4ccccc4n3)cc2)c1	5.6	-5	2708	1	-11	-18	4

smiles	Sa RN4220 lethal	Sa ugtP lethal	Autofluor counter	Mtb hypoxia inh	BJeLR lethal	PrP 5UTR inh	Mtb hypoxia inh growth
COc1ccccc1NC(=O)CSc1nnc(COc2ccc(Cl)cc2)o1	-0.6	18	5786	4	-6	-7	12
CC(C)CN(C(=O)COC(=O)c1cncc(Br)c1)c1c(N)n(Cc2ccccc2)c(=O)[nH]c1=O	-3.1	7	5472	6	-6	-13	5
CC(=O)Nc1cccc(NC(=O)C2CCCN2C(=O)Nc2ccc(Cl)cc2)c1 (stereo not drawn)	4.4	4	6886	6	0	-8	8
COc1cccc(-c2csc(N3CCN(CC(=O)NNC(=O)c4ccc(Br)cc4)CC3)n2)c1	7.7	0	4233	6	4	-7	-1
CCn1nc(NS(=O)(=O)c2ccc([N+](=O)[O-])cc2)c2cc3ccccc3nc21	3.5	-1	5974	-3	-4	-1	6
COc1cc(CNCc2ccco2)cc(OC)c1O	2.7	15	3154	0	2	-9	-4
Cc1ccc(NC(=O)Cc2nc(COC(=O)Cc3cccc(C(F)(F)F)c3)cs2)cc1	-1.5	-1	u	-3	x	-6	11
Cc1ccccc1CN1CCN(S(=O)(=O)c2ccc(F)cc2)CC1	0.9	8	2837	8	-1	-7	5
Cc1ccc(C(=O)NN(C)c2nc3ccccc3nc2C(F)(F)F)cc1	-1.9	3	2863	x	-2	-36	x
CN1/C(=C\C(=S)NC(=O)c2ccccc2Cl)C(C)(C)c2ccccc21	5.2	-3	4289	5	-8	-24	-1
COc1ccc(N2CCN(C(=O)c3ccc(OCc4c(C)noc4C)c(OC)c3)CC2)cc1	-2.3	9	2134	x	8	-6	x
CN(C)c1ccc(CNc2ncnc3sccc23)cc1	3.7	-2	4231	-7	14	-1	-2

High-throughput results deposited in PubChem BioAssay by several laboratories.
